TRPML1 blocker: qHTS for Inhibitors of the Human Mucolipin Transient Receptor Potential 1 (TRPML1); TRPML1-inducible cells, Ca2+ dye fluorescence, FDSS; stronger effect = lower value; inhibition of EC80 agonist-evoked calcium signal; activity change, negative = inhibition, % (no concentration beside the values); AID 624415, 2012; Mucolipin-1 (Homo sapiens), Q9GZU1; hit rate 0.02% among 390,000; in the data active means activity change below about -50%; inconclusive means about -30% to -50%; inactive means above about -30%;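 further: stimulus is agonist 54-4 at its EC80 concentration; on the % scale 0 is the no-effect control and ±100 the full control effect; compound concentration not given in the record; the text of the record puts the active cut at -80%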
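Calcium fluorescence in TRPML1-DL cells induced overnight with Tet: a 110 s read after compound pin addition, then a 110 s antagonist read after challenge with 54-4 at 4 uM final (EC80).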
CtBP-E1A inh: qHTS Assay for Inhibitors of the CtBP/E1A Interaction. CtBP / adenovirus E1A interaction (AlphaScreen). AlphaScreen GST-E1A/His-CtBP binding, 1536-well; stronger effect = lower value; control for the full effect not named in the record. activity change, % (test concentration not listed). hit rate 0.49% among 340,000; in the data active means activity change below about -65%; inconclusive means about -30% to -65%; inactive means above about -30%; further: on the % scale 0 is the no-effect control and ±100 the full control effect; compound concentration not given in the record
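Protein mix (5X: 125 nM each GST-E1A, His-CtBP) was incubated with pinned compound 2 h at 37 deg C in dark, in 50 mM Tris pH 8.0 buffer with 300 mM NaCl. Glutathione donor and nickel acceptor beads followed; AlphaScreen signal read after 1 h.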
TRPML1 ag: qHTS for Agonists of the Human Mucolipin Transient Receptor Potential 1 (TRPML1) | Mucolipin-1 (Homo sapiens), Q9GZU1 | TRPML1-expressing cells, Ca2+ dye fluorescence, FDSS; host cell line not named in the record; reference of the full effect not given here | activation, % (concentration not given with the values) | hit rate 0.12% among 410,000; in the data active = activation above about 50%; inconclusive = about 30% to 50%; inactive = below about 30%; further: 0% is about no effect; the text of the record puts the active cut at 80%
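In this qHTS format, compounds were pin-transferred onto Ca8-dye-loaded TRPML1-DL cells induced with Tet overnight, and intracellular Ca2+ fluorescence was recorded kinetically for 110 s after a 10 s baseline. A subsequent 4uM final 54-4 (EC80) addition followed by a second 110 s read served as the antagonist phase.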
TRPV1 PAM: HTS Assay for Compounds that Act as Potentiators of the Vanilloid Receptor 1 | TRPV1-expressing cells, Fluo-8 calcium influx, capsaicin EC20 potentiation; host cell line not named in the record; control for the full effect not named in the record | Transient receptor potential cation channel subfamily V member 1 (Homo sapiens), Q8NER1 | potentiation, % at 8.33 µM | hit rate 0.02% among 320,000; active means potentiation above 80%; inconclusive means 30% to 80%; inactive means below 30%; further: 0% is about no effect
Target sequence (Q8NER1 whole entry, looked up): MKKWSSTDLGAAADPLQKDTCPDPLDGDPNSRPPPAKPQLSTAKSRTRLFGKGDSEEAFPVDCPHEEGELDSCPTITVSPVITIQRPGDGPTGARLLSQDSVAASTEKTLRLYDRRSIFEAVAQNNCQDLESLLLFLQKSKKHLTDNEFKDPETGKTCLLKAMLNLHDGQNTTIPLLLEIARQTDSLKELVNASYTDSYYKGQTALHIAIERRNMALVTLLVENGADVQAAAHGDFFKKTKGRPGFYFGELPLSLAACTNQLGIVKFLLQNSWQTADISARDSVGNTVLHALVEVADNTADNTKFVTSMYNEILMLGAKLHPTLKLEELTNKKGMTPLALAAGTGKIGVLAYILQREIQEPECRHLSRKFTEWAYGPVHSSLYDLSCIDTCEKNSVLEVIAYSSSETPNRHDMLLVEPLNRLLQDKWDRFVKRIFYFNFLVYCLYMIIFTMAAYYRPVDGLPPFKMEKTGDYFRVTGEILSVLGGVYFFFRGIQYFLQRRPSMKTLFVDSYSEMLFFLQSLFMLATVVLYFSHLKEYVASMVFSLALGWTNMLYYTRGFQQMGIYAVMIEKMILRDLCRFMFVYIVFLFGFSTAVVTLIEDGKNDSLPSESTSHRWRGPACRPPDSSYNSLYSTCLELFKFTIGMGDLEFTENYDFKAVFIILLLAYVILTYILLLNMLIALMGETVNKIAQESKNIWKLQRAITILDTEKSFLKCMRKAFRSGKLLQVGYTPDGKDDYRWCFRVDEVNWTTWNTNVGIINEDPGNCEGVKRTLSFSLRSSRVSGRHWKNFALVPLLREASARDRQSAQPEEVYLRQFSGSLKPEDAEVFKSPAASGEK
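Cells expressing TRPV1 were dye-loaded with Fluo-8 and read kinetically: 10 s baseline, 3 min after compound (agonist portion), then 2 min after EC20 capsaicin (allosteric enhancer portion). Calcium-bound dye fluorescence at 480/520 nm.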
D2 potentiator: Beta-Arrestin HTS for Positive Allosteric Modulators of the Human D2 Dopamine Receptor: Potentiators; DiscoveRx D2 beta-arrestin cells, luminescence, 90 min; 100% = 57 uM dopamine signal; potentiation, % (test concentration not listed); D(2) dopamine receptor (Homo sapiens), P14416; hit rate 0.23% among 360,000; active = potentiation of 50% or more; inconclusive = 30% to 50%; inactive = 30% or less;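 further: compound concentration not given in the record; tested on top of an EC20 dose of dopamine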
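PathHunter beta-arrestin assay in DiscoveRx D2 cells. Compounds were added with an EC20 of dopamine (50 nM final) for 90 min at 37 deg C. Luminescence was read 1 h after detection reagent, with 57 uM dopamine as the EC100 control.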
Six1-Eya2 inh: qHTS Assay for Inhibitors of the Six1/Eya2 Interaction | Homeobox protein SIX1 (Homo sapiens) + Protein phosphatase EYA2 (Homo sapiens), … | AlphaScreen GST-Six1/His-Eya2 binding, biochemical; stronger effect = lower value; control for the full effect not named in the record | activity change, % (test concentration not listed) | hit rate 0.56% among 360,000 | AID 651725, 2012; in the data active = activity change below about -65%; inconclusive = about -30% to -65%; inactive = above about -30%; further: on the % scale 0 is the no-effect control and ±100 the full control effect; compound concentration not given in the record
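Compounds are tested against tagged Six1 and Eya2 proteins bridged by glutathione donor and nickel acceptor beads; after a one-hour incubation at 37 °C without light, AlphaScreen emission is recorded.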
An asterisk follows results filed as active; ? = inconclusive; / = not tested or not shown; & = joins results of further samples.

Structure	TRPML1 ag	TRPML1 blocker	Six1-Eya2 inh	D2 potentiator	TRPV1 PAM	CtBP-E1A inh
COC(=O)c1ccc(COC(=O)Cc2n[nH]c(=O)c3ccccc23)cc1	1.3	-7	1	-9	7	-23
Cc1cc(OCC(=O)NCCc2ccc(S(N)(=O)=O)cc2)c2c(C)cc(=O)oc2c1	0.4	37	-1	-3	11	/
COc1ccc2c(C(=O)c3ccc(C)cc3)n(CCC(N)=O)[n+]([O-])c2c1	-0.6	-6	4	1	?	5
CCOc1ccc(C)cc1S(=O)(=O)NC1CCCCC1	-0.7	3	3	-4	-14	6
CC(C)OC(=S)N/C(=N\S(=O)(=O)c1ccccc1)c1ccccc1	-0.3	-11	6	1	11	8
CC(C)CCNC(=O)/C=C/c1ccc(Br)cc1	0.1	0	5	-16	-12	13
Cc1cc2[nH]c(=O)cc(-c3ccccc3)n2n1	-0.6	4	0	-8	3	/
Nc1c(C(=O)Nc2ccccc2)sc2nc(-c3ccco3)ccc12	3.5	-2	-1	-14	4	-12
COc1ccc(-c2noc(N3CCC(C(=O)NCCCN4CCCCC4)CC3)n2)cc1	0.0	0	0	-6	1	2
O=C1c2ccccc2C(Nc2ccc(S(=O)(=O)N3CCOCC3)cc2)N1c1cccnc1 (stereo unspecified)	-0.1	-1	-2	0	5	10
COc1ccc(OCCC(=O)OCC(=O)NC(=O)NC(C)(C)C)cc1	1.1	-3	-1	2	7	-2
CC(C)CC(NC(N)=O)C(=O)OCC(=O)Nc1ccc(SC(F)F)cc1 (stereo unspecified)	-1.2	-4	1	-1	14	5
CCN1CCN(S(=O)(=O)c2cccc(S(=O)(=O)N3CCOCC3)c2)CC1	0.7	15	9	-1	5	1
CC(C)(C)CC(=O)N1CCN(c2ccc(S(=O)(=O)N3CCOCC3)cc2[N+](=O)[O-])CC1	-0.2	13	-3	1	-7	/
C#CCOCCOCCOCCNc1nc(N2CCN(C(=O)CCCCCCCCCCNC(=O)[C@H]([C@@H](C)CC)n3cc(CCCCCN)nn3)CC2)nc(N2CCN(C(=O)CCCCCCCCCCNC(=O)[C@H](CO)n3cc(CCCCCN)nn3)CC2)n1	5.0	-6	-12	-7	7	-15
CCCCNC(=S)Nc1ccc(Oc2ccccc2)cc1	0.8	9	-10	-6	-16	2
COc1ccc(OC)c2[nH]c(=O)c(CCNC(=O)COc3ccccc3)cc12	-1.5	4	-6	5	12	5
Cc1cccnc1C1=NOC(Cc2ccccc2)C(=O)N1Cc1ccc(F)cc1 (stereo unspecified)	-0.2	/	6	1	/	12
CCCOc1ccc(-c2cn3ccccc3n2)cc1[N+](=O)[O-]	0.0	-4	-10	9	-17	-12
CCCSc1nc2c(cnn2-c2ccc(C)c(C)c2)c(=O)[nH]1	0.1	-2	-7	-6	4	-17
CCOc1ccc(/C=N/NC(=O)c2cc3c(OC)cc(OC)cc3[nH]2)cc1OC	4.1	8	?	-2	-3	/
CCOC(=O)C(=Cc1ccc(-c2ccsc2C(=O)OC)o1)C(=O)OCC	2.0	-2	3	7	-9	3
CCCNC(=O)NC(=O)CSc1nnc(-c2c[nH]c3ccccc23)o1	1.5	3	-11	-13	9	-1
COC(=O)c1c(NC(=O)CSc2nnnn2-c2ccccc2)sc2c1CCC(C)C2 (stereo unspecified)	1.0	19	-1	-9	-2	1
CCn1nc(NC(=O)c2cccnc2)c2cc3cccc(C)c3nc21	-0.4	-5	7	-32	-5	7
NC(=S)N/N=C/C=C/c1ccccc1	0.6	2	-1	-7	-20	-8
O=C(Nc1ccccc1C(=O)N1CCCC1)c1ccccc1	0.4	-10	-8	22	14	-9
CCOc1ccc(CCNC(=O)COC(=O)c2ccc[nH]c2=O)cc1OCC	-0.1	5	1	0	/	5
CN(C)c1cc[n+](CC(=O)Nc2ccccc2C(F)(F)F)cc1	-0.6	5	-1	-4	?	5
COc1ccc(S(=O)(=O)N2CC=C(C(=O)NC3CCCC3)CC2)cc1	-0.3	-9	1	-5	20	0
COC(=O)c1cc(OC)c(OC)cc1NC(=O)C1CCCO1 (stereo unspecified)	0.9	-7	0	-7	0	-2
O=c1c2c3c(sc2ncn1/N=C/c1ccco1)CCCC3	0.7	4	-1	-11	1	-15
COC(=O)c1cnc(Nc2nc(C(N)COCc3ccccc3)cs2)nc1C(F)(F)F (stereo unspecified)	-0.6	/	-20	1	/	-24
COc1ccc(OC)c(/C=C/C(=O)c2ccc(Cl)cc2)c1	3.3	19	-1	-11	28	-5
O=C(NC1CCCC1)C(c1ccc(F)cc1)N(Cc1ccccc1)C(=O)c1csnn1 (stereo unspecified)	1.9	27	-5	-6	-22	5
COc1cccc(Nc2nc(N)nc(-c3oc4ccccc4c3C)n2)c1	1.0	-1	-15	5	6	-23
Cc1cccc(C)c1NC(=O)CN(C)C(=O)c1cccc(NS(=O)(=O)c2ccccc2)c1	-0.6	-11	4	-1	-6	-15
C=CCNc1ncnc2c1ncn2[C@H]1CN(CCc2ccccc2)C[C@@H](CO)O1	-0.5	1	6	-1	/	1
C=C1SC(=Nc2c(C)cccc2Cl)N(C(=O)c2sc3ccccc3c2Cl)C12CCCCC2	0.6	2	-1	-4	10	/
CC(=O)c1ccccc1NC(=O)CN1C(=O)CS/C1=C\c1nc(-c2ccc(C)cc2)cs1	-1.0	0	-1	-6	-10	/
Cc1ccccc1OCC(=O)Nc1cnn(CCCC(=O)O)c1	0.6	1	2	-4	8	4
C/C(=N\NC(=O)c1ccccc1C)c1ccc(N2CCOCC2)cc1	-0.9	7	7	-10	2	5
O=C(O)/C=C\c1cc2c(cc1[N+](=O)[O-])OCO2	-0.1	16	-1	2	?	6
Cc1ccccc1-c1nnc(Cc2ccccc2)o1	0.1	-2	5	-12	-1	-7
Cc1cc(NS(=O)(=O)c2ccccc2)no1	-0.7	6	7	-4	10	3
CCOc1cc(C(=O)NCCc2ccc(S(N)(=O)=O)cc2)cc(OCC)c1OCC	0.0	-3	1	-13	-19	3
CN(C)c1ccc(-n2cccc2/C=C/[N+](=O)[O-])cc1	1.4	4	1	-2	-10	-21
Cc1ccc(C)c(S(=O)(=O)N2CCN(C(=O)Cc3c(F)cccc3Cl)CC2)c1	-0.5	1	5	-11	-5	0
CCOC(=O)c1ccc(NC(=S)NCCc2ccc(F)cc2)cc1	2.1	-14	2	-8	-2	29
COc1cccc(N2C(=O)C(O)=C(C(C)=O)C2c2ccc(OC)c(OC)c2)c1 (stereo unspecified)	-0.2	-5	5	-2	-29	6
CCSC1=C(C#N)C(c2ccc(C)o2)CC(=O)N1 (stereo unspecified)	1.1	13	1	-6	-8	0
Cc1c(N/C=C/C(=O)C(F)(F)F)c(=O)n(-c2ccccc2)n1C	-0.6	6	3	-5	-14	4
COc1ccc2c(c1)OC[C@H]1[C@H]2N2C(=O)CN(CC3CCCO3)C(=O)[C@@]2(C)[C@H]1c1ccccc1 (stereo partly specified)	0.1	-4	-5	2	-4	-24
Cc1csc(NC(=O)c2ccc(=O)[nH]c2)n1	/	/	-8	-4	7	0
COCCN(CC(=O)NCc1ccc(F)cc1)C(=O)CCC(=O)Nc1nccs1	0.8	-7	9	-2	-2	8
CCOc1ccc2oc(C(=O)OCC(=O)N3CC(C)OC(C)C3)c(C)c2c1 (stereo unspecified)	-1.1	-4	-3	1	-7	/
CC/C(O)=C1\C(=O)CC(c2ccccc2)CC1=NCCC(=O)O (stereo unspecified)	0.2	2	10	10	-1	9
O=[N+]([O-])c1nn(-c2ccc3c(c2)OCCO3)n(O)c1=NC1CCCCCC1	0.2	-5	?	85*	-11	?
OCC(O)/C=N/Nc1nc(Nc2ccccc2)nc(Nc2ccccc2)n1 (stereo unspecified)	0.9	1	-2	-10	-21	2
CCC(=O)Nc1ccc(NC(=O)CSc2nnnn2-c2ccc(OC)cc2)cc1	-0.5	-8	-1	7	-6	/

Entries from the list above containing a Cl atom:
Structure	TRPML1 ag	TRPML1 blocker	Six1-Eya2 inh	D2 potentiator	TRPV1 PAM	CtBP-E1A inh
COc1ccc(OC)c(/C=C/C(=O)c2ccc(Cl)cc2)c1	3.3	19	-1	-11	28	-5
C=C1SC(=Nc2c(C)cccc2Cl)N(C(=O)c2sc3ccccc3c2Cl)C12CCCCC2	0.6	2	-1	-4	10	/
Cc1ccc(C)c(S(=O)(=O)N2CCN(C(=O)Cc3c(F)cccc3Cl)CC2)c1	-0.5	1	5	-11	-5	0

Following part:
Structure	TRPML1 ag	TRPML1 blocker	Six1-Eya2 inh	D2 potentiator	TRPV1 PAM	CtBP-E1A inh
Cc1cnc(=O)[nH]c1SCC(=O)Nc1nccs1	0.5	11	-4	0	12	7
Cc1cc(C)n(C2CCCCC2OC(=O)c2ccccc2F)n1 (stereo unspecified)	1.0	-10	7	-9	3	4
O=C(CSc1nc2c(oc3ccccc32)c(=O)n1CC1CCCO1)NCc1ccccc1 (stereo unspecified)	1.0	8	0	16	-9	4
CCN(CC)C(=O)C1CCC(C)(C(=O)O)C1(C)C (stereo unspecified)	-0.7	2	7	-10	-2	2
COc1ccc(NC(=O)CNC(=O)Cn2ccc3ccccc3c2=O)c(OC)c1	2.2&-0.9	15&-3	-4	-1	18	-4
S=C(c1ccc(-c2cccc(Cl)c2)o1)N1CCCCC1	2.4	10	?	-2	-4	?
O=c1c(-c2ccccc2)nc(-c2ccccc2)cn1O	-0.7	9	6	-6	0	8
O=C(c1cccc(NS(=O)(=O)c2ccc(F)c(F)c2)c1)N1CCN(Cc2ccccc2)CC1	2.1	-10	-8	9	-9	-12
COC(=O)c1c(NC(=O)c2ccccc2F)sc(C(=O)N2CCOCC2)c1C	0.7	-18	-7	3	4	-2
O=C(c1cc2ccccc2oc1=O)N1CCN(c2ccccn2)CC1	-0.5	2	3	26	19	2
Cc1nc2ccc(NC(=O)CS(=O)(=O)c3ccc(F)cc3)cc2s1	0.0	8	4	-24	-8	0
Cc1cccc(OCc2nnc(SCn3nnc4ccccc4c3=O)o2)c1	-0.2	3	-1	0	18	1
CC12C(=O)N(c3ccccc3)C(=O)C1C(c1ccccc1)N1CCCN12 (stereo unspecified)	0.1	-2	2	-3	/	-8
Cc1ccc(C(=O)Nc2nc3c(s2)CCCC3)o1	-1.2	-7	-4	-10	-13	-1

The order is random; about 0.95% have a hit in one of these screens.
